VACV Venus inh: qHTS for Stage-Specific Inhibitors of Vaccinia Orthopoxvirus: Venus Reporter Primary qHTS | Vaccinia virus Venus reporter expression, fluorescence | Potency, µM (top dose mostly 36.5 µM), inactives show at the highest dose activity change, negative = inhibition, actives largely listed as inhibitors | 330,000 compounds, 0.46% hits | AID 720580, 2013; active means well fitted inhibition curve with a large enough effect; inconclusive means small, poorly fitted or top-dose-only effect; inactive means no such curve, though single readings can be large or run the other way; tested in A549 cells; also: nearly all actives have a fitted effect of over 30% in size; inactives centre near -10
Vaccinia mCherry: qHTS for Stage-Specific Inhibitors of Vaccinia Orthopoxvirus: mCherry Reporter Primary qHTS; Vaccinia virus mCherry reporter infection, fluorescence; about a quarter of the inactives have no number; Potency, µM (titrated, usually from 36.5 µM), inactives show at the highest dose activity change, negative = inhibition, hits mostly inhibitors; 310,000 compounds, 0.63% hits; active = well fitted inhibition curve with a large enough effect; inconclusive = small, poorly fitted or top-dose-only effect; inactive = no such curve, though single readings can be large or run the other way; tested in A549 cells; also: nearly all actives have a fitted effect of over 35% in size; inactives centre near -10
An asterisk follows results filed as active; i = inactive; ? = inconclusive; · = no result given; & = joins results of further samples; [ ] = remark or other dose. % is scaled to controls: 0 for no effect and ±100 for the full control effect; potency is read from the fitted curve at half-maximal effect.

smiles	VACV Venus inh	Vaccinia mCherry
O=C(NC1CCCCC1)C(c1ccc(C(F)(F)F)cc1)n1c(=O)c(-c2ccco2)nc2ccccc21 (stereo unspecified)	-4%	-28%
C/C(=N\NC(=O)c1cccc(Br)c1)c1cccnc1	-10%	?
O=c1[nH]c2cc3c(cc2cc1CN(Cc1cccnc1)C(=S)NCc1ccco1)OCO3	-14%	-10%
Cc1cccc(NC(=O)CSc2nc(=O)n(Cc3cccnc3)c3c2CCC3)c1	-23%	i
COc1ccc(N2CCN(C(=O)c3cc(=O)[nH]c4ccccc34)CC2)cc1	4%	5%
Cc1cc2cc(CNC(=O)Cc3cccs3)ccc2n1C	35%[activator]	5%
S=C(NCc1ccco1)Nc1cc(Cl)c(Cl)cc1Cl	-25%	-27%
COc1cc(/C=N/NC(=O)CCN2CCN(C(c3ccccc3)c3ccccc3)CC2)ccc1O	-29%	-30%
COc1cc(OC)cc(-c2noc(-c3csc([C@@H]4O[C@H](CO)[C@H](O)[C@H](O)[C@H]4O)n3)n2)c1	-9%	-10%
CCN1C(=O)[C@H]2[C@@H](c3ccc(-c4ccc(C(C)=O)cc4)cc3)N[C@@](Cc3ccccc3)(C(=O)OC)[C@H]2C1=O	-25%	-4%
O=C1CCc2cc(NS(=O)(=O)c3ccc(F)cc3)cc3c2N1CCC3	-15%	-23%
COc1cc(C(=O)Nc2ccncc2)c([N+](=O)[O-])cc1OC	-4%	-4%
CC(=O)N/N=C\c1ccccc1OC/C=C/c1ccccc1	-20%	i
CC1=NNC(=O)/C1=C\c1cn(-c2ccccc2)nc1-c1ccccc1	10µM*	10µM*
Cc1cc(/C=C2\C(=O)NC(=O)N(Cc3ccccc3)C2=O)c(C)n1C1CC1	2%	i
O=C(NC(=S)NNC(=O)c1ccccc1O)c1cccs1	-1%	?
Cc1ccc(S(=O)(=O)N2CCOCC2)cc1NC(=O)CSc1nnnn1C1CC1	-6%	-27%
O=C(NN1C(=O)C2C3CCC(O3)C2C1=O)c1ccc(Br)o1 (stereo unspecified)	-11%	-12%
COc1ccc(S(=O)(=O)CC2(O)CCN(C(=O)CC(C)C)CC2)cc1	-6%	-11%
Cc1ccc(NC(=O)CCS(=O)(=O)c2ccc(Br)s2)cc1	-11%	-20%
CC(C)N(Cc1nc(-c2ccccc2)no1)C(=O)CN(C)S(=O)(=O)c1ccccc1	-12%	·
C/C(CC(C)(C)C1CCCCC1)=N\NC(N)=S	18µM*	11µM*
Cn1c(O)c(C(C#N)=C2N=c3ccccc3=N2)c2ccccc21	-8%	i
CC1=C(C(=O)OCc2ccc3nsnc3c2)N2C(=O)[C@@H](NC(=O)OCc3ccc4nsnc4c3)[C@H]2SC1	-4%	i
O=C(CCn1nc(-c2ccccc2)ccc1=O)N1CCCC1	0%	i
COC(=O)c1ccc(NC(=O)CNS(=O)(=O)c2cccs2)cc1	-3%	-9%
Cc1ccc(C2=NOC(C)(c3nnc(Cc4ccccc4)o3)C2)cc1 (stereo unspecified)	-12%	i
CCCN(Cc1ccccc1)C(=S)Nc1ccc(OCC)cc1	-15%	i
COc1cccc(NC(=O)Cn2c(=O)n(-c3ccc(Cl)cc3)c(=O)c3oc4ccccc4c32)c1	-21%	-20%
O=C(c1ccccc1)N1CCCC(C(=O)N2CCN(c3ccccc3)CC2)C1 (stereo unspecified)	-13%	i
COc1ccc(C2C(C#N)=C(N)OC3=C2C(=O)CC(C)(C)C3)c([N+](=O)[O-])c1OC (stereo unspecified)	-13%	-25%
O=c1cc(CSc2nnnn2-c2ccccc2)nc2sccn12	2%	-4%
O=C(Nc1ccccc1)OCCNC1CCCCC1	-10%	-3%
COc1ccc(C(=O)Nc2ccc3oc(Cc4ccc(Cl)cc4)nc3c2)cc1OC	?	?
N#Cc1nc(COc2ccc(-c3ccccc3)cc2)oc1NCCCN1CCOCC1	?	-11%
OC(c1ccccc1)c1nc2ccccc2[nH]1 (stereo unspecified)	-3%	i
CCc1ccc(NC(=O)CCCn2nc(CC)n3c(cc4occc43)c2=O)cc1	-16%	-3%
O=C(COC(=O)Cc1ccc(F)cc1)Nc1cc(S(=O)(=O)N2CCOCC2)ccc1N1CCCC1	-13%	i
CN1CCC(N(C)C(=O)c2ccc(Cl)c(S(=O)(=O)N(C)c3ccc(Cl)cc3)c2)CC1	-20%	-15%
O=C(Nc1ccc(N2CCOCC2)c(Cl)c1)c1ccco1	-16%	·
C[C@@H]1CC[C@]2(O[C@H](CCO)C[C@H](O)[C@H]2O)O1	-12%	-1%
CC(=O)N1CC2(C)CN(C(C)=O)CC(C)(C1)C2	0%	-8%
Cc1ccc(Nc2nnc(-c3cc4c(ccc5ccccc54)oc3=O)s2)cc1	15%	0%
Cc1onc(-c2ccccc2)c1C(=O)N1CCCN2C(=O)c3ccccc3C21 (stereo unspecified)	-17%	-13%
Cc1nn(-c2ccccc2)c(C)c1NC(=O)Cc1cccs1	-4%	5%
CC(=O)Nc1ccc(S(=O)(=O)N2CCN(c3cc(C)ccc3C)CC2)cc1	-15%	6%
Cc1nn(C(C)C(=O)NCc2ccco2)c(=O)c2nn(-c3ccccc3)c(C)c12 (stereo unspecified)	-17%	-22%
Cc1cc(C)cc(-n2c(SCC(=O)N3CCOCC3)nc3c([nH]c4ccccc43)c2=O)c1	-4%	26%
CC(=O)Nc1ccc(S(=O)(=O)n2cnc3cc(C)c(C)cc32)cc1	-10%	-19%
CNC(=O)c1c(NC(=O)Cc2coc3ccc(OC)cc23)sc2c1CCCC2	-11%	-3%

(cont.)
smiles	VACV Venus inh	Vaccinia mCherry
O=C(CN1CCCCCC1)Nc1ccc(S(=O)(=O)N2CCCCC2)cc1	-1%	i
CC(C)NCC(O)COC1CCC(C(C)(C)C)CC1 (stereo unspecified)	-28%	-13%
O=C(NCc1ccc2c(c1)OCO2)c1c(O)c2cccc3c2n(c1=O)CCC3	-1%	-2%
CCCCCCCCCCOC(=O)NC1CCS(=O)(=O)C1 (stereo unspecified)	-6%	-7%
CCOc1ccc(NC(=O)CC2C(=O)N(CC)C(=S)N2CCN2CCOCC2)cc1 (stereo unspecified)	4%	-10%
CCc1c(C)nc2cc(-c3ccc(OC)c(OC)c3)nn2c1N1CCCC1	?	-12%
CCc1ccc(NC(=O)CSc2nc(N)c(NC(=O)c3ccc(F)c(F)c3)c(=O)[nH]2)cc1	-6%	-10%
OC(C#Cc1ccccc1)(c1ccccc1)c1ccccc1	-4%	-9%
COc1ccc(S(=O)(=O)N(C)CC(=O)NCCN2CCOCC2)cc1C	-4%	1%
O=C(CCn1c(=O)c2ccccc2n(Cc2cc(=O)n3ccccc3n2)c1=O)NCc1ccco1	-2%	-14%
O=C(O)COc1ccc2oc3ccccc3c2c1	18%	i
COc1ccc(-n2nnnc2C(c2ccnc3ccccc23)N2CCN(C/C=C/c3ccccc3)CC2)cc1 (stereo unspecified)	-26%	-26%
CCOC(=O)CSc1nc(C)c2cccc(C)c2n1	-9%	i
CCOC(=O)C1=C(CN2CCSCC2)NC(=O)NC1c1ccc2c(c1)OCO2 (stereo unspecified)	8%	0%
COc1ccc(C(=O)OCCCc2cc3ccccc3c(=O)o2)cc1	-20%	i
Cc1ccc(OCCN2CCN(C)CC2)c([N+](=O)[O-])c1	-5%	-4%
CCOc1ccccc1Nc1ccc(C(=O)O)cc1NC(C)=O	-12%	·
Cc1ccc(N(C(=O)c2ccc(CN3CCOCC3)o2)C(C(=O)NCCC(C)C)c2cccs2)c(C)c1 (stereo unspecified)	-12%	-12%
Cc1cc(/C=C2\SC(=O)NC2=O)c(C)n1-c1ccc(N2CCOCC2)cc1	-20%	i
Cc1cc(O)c(C(C)C)cc1N=Cc1ccccc1[N+](=O)[O-]	-3%	?
COc1cc(/C=C2/C(=O)N(c3cccc(Br)c3)N=C2C)cc(OC)c1O	?	?
CN(C)c1ncnc2c1ncn2[C@H]1CN(Cc2cccs2)C[C@@H](CO)O1	4%	39%[activator]
CCN(CC)S(=O)(=O)c1ccc(NC(=O)c2c(C)oc3ncnc(N4CCCCC4)c23)cc1	-9%	-12%
COc1ccc(CN(CC(=O)NCCc2ccccc2)C(=O)CCC(=O)Nc2cc(C)ccn2)cc1	-5%	3%
O=C(c1ccc(-c2ccc(Cl)cc2)o1)N1CCN(c2ccc([N+](=O)[O-])cc2Cl)CC1	-21%	-13%

3 neighbouring entries already listed:
smiles	VACV Venus inh	Vaccinia mCherry
CCN(CC)S(=O)(=O)c1ccc(NC(=O)c2c(C)oc3ncnc(N4CCCCC4)c23)cc1	-9%	-12%
COc1ccc(CN(CC(=O)NCCc2ccccc2)C(=O)CCC(=O)Nc2cc(C)ccn2)cc1	-5%	3%
O=C(c1ccc(-c2ccc(Cl)cc2)o1)N1CCN(c2ccc([N+](=O)[O-])cc2Cl)CC1	-21%	-13%

Entries of single compounds from above. Order of screens: VACV Venus inh	Vaccinia mCherry
Shown for OC(C#Cc1ccccc1)(c1ccccc1)c1ccccc1 : -4%	-9%
Shown for CCOc1ccccc1Nc1ccc(C(=O)O)cc1NC(C)=O : -12%	·

More results.
Compound	VACV Venus inh	Vaccinia mCherry
CC(C)Cn1c(N)c(C(=O)CCl)c(=O)n(C)c1=O	-24%	-28%
CSc1nnc(C)c(=O)n1COC(=O)COc1ccc(F)cc1	-7%	i
O=C(c1ccccc1)N1CCCC(c2ccc(Cl)cc2)=N1	-26%	-17%
Cn1cc(S(=O)(=O)N2CCCC2)cc1C(=O)NCCc1ccccc1	-14%	10%
Cc1cccc(C(=O)N/N=C/C(C)Cc2ccc3c(c2)OCO3)c1 (stereo unspecified)	0%	-3%
CCN(CC)S(=O)(=O)c1nnc(NC(=O)c2ccc(C)cc2)s1	-10%	-7%
CCOC(=O)c1c(N)n(-c2ccc(Cl)c(Cl)c2)c2nc3ccccc3nc12	4%	3%
Cc1nc(CS(=O)(=O)c2ccccn2)sc1C(=O)NNC(=O)c1c(F)cccc1Cl	-1%	-11%
CC(=O)Nc1c(C)nn(-c2ccccc2)c1N1CCC(C(=O)NCc2ccccc2Cl)CC1	-9%[7.34 µM]	-10%[7.34 µM]
CCOC(=O)C1=C(CC)OC(N)=C(C#N)C1c1ccc(F)cc1F (stereo unspecified)	-7%	-19%
COc1ccccc1C(=O)Nc1ccc2c(c1)nc(CN1CCCCC1)n2C	-10%&-7%	-8%&-7%
O=C(NCCCNC(=O)C(F)(F)C(F)F)C(F)(F)C(F)F	-9%	i
O=C1Nc2ccc([N+](=O)[O-])cc2C1=Nc1cccc(CO)c1	-5%	-8%
CC(=O)c1cc(OC(=O)c2ccncc2)ccc1OC(=O)c1ccncc1	-20%	·
CCSc1nnc(CCNS(=O)(=O)c2ccc(C(C)=O)cc2)n1C	-4%	-4%
O=C(Nc1nc2c(Br)cc(Br)cc2c(=O)s1)c1ccco1	-1%	i
COc1cc(Cl)c(C)cc1NC(=O)CN1C(=O)C2CCCCC2C1=O (stereo unspecified)	-3%	-6%
CC(C)(C)/C(O)=C/c1nc2cc(Cl)ccc2oc1=O	-26%	?
C[C@H](CO)N1C[C@H](C)[C@@H](CN(C)S(=O)(=O)c2ccc(F)cc2)Oc2c(NC(=O)Nc3ccc(C(F)(F)F)cc3)cccc2C1=O	-23%	-1%
CC(NC(=O)c1ccco1)c1ccc2c(c1)OCCO2 (stereo unspecified)	-13%	-11%
O=C(CNC(=O)c1cc(Cl)nc2ccccc12)Nc1ccccc1Br	2%	-11%
COCCSc1nnc(NC(=O)C2CC(=O)N(CCc3ccc(F)cc3)C2)s1 (stereo unspecified)	-7%	-25%
Cc1cn([C@H]2C[C@H](O)[C@@H](/C=C/C(=O)NCCC(C)C)O2)c(=O)[nH]c1=O	5%	i
c1cc(N2CCCCC2)nc(N2CCCCC2)n1	-17%	?
Cc1ccc(C)c(NC(=O)c2cc(S(=O)(=O)NCCc3ccccc3)ccc2F)c1	-8%	-3%
Cc1ccc(C)c(N2CCN(C(=O)c3cnc4c(-c5ccccc5)c(C)nn4c3C)CC2)c1	-7%	-9%
NC(=O)c1c(NC(=O)c2ccc(S(=O)(=O)N(CCCl)CCCl)cc2)sc2c1CCCCC2	-8%	-10%
CSc1ncc(Cl)c(C(=O)Nc2c(C(=O)Nc3cccc(C)c3)oc3ccccc23)n1	1%	-2%
CC(C)CCNC(=O)C1(C)CCN1Cc1ccc(-c2ccccn2)cc1 (stereo unspecified)	-23%	i
NC(=O)c1ccc(-n2nnnc2SCC(=O)Nc2ccc(F)cc2)cc1	-14%	-11%
O=C(CSc1nnc(CNC(=O)c2ccc(F)cc2)o1)c1ccccc1	-18%	-18%
Cc1nc2c(o1)C(=O)c1ccccc1C2=Nc1ccccc1	2.8µM*	2.5µM*
COc1ccc(Cl)cc1NC(=O)CSC1=Nc2ccccc2C2=NC(CC(=O)NCc3cccs3)C(=O)N12 (stereo unspecified)	-8%	-8%
C=CCN(CC=C)C(=O)C1CCN(S(=O)(=O)c2ccc(-n3cnnn3)cc2)CC1	-7%	-15%

Structures listed so far with a COOH group:
Compound	VACV Venus inh	Vaccinia mCherry
O=C(O)COc1ccc2oc3ccccc3c2c1	18%	i
CCOc1ccccc1Nc1ccc(C(=O)O)cc1NC(C)=O	-12%	·
